# Source: PubChem (National Center for Advancing Translational Sciences (NCATS))
# Marburg entry inh: qHTS for inhibitors of binding or entry into cells for Marburg Virus; Marburg virus pseudotyped entry inhibition, cell reporter; control for the full effect not named in the record; about a third of the inactives were read at about 46 µM; Potency, µM (titrated, usually from 37.8 µM), for inactives: at the top dose activity change, negative = inhibition, actives largely listed as inhibitors; 1.8% of 300,000 active; active = well fitted inhibition curve with a large enough effect; inconclusive = small, poorly fitted or top-dose-only effect, or effect the other way; inactive = flat fitted curve, though single readings scatter; tested in HEK293 cells; about a fifth of its hits are not listed in these tables; also: % is scaled to controls: 0 for no effect and ±100 for the full control effect; luciferase read-out
# Cruzain inh noDet: qHTS Assay for Promiscuous and Specific Inhibitors of Cruzain (without detergent). purified cruzain, Z-FR-AMC fluorescence, no detergent. 2.3% of 200,000 active. Potency, µM, inactives show max response, negative = inhibition, hits mostly inhibitors. Cruzipain (Trypanosoma cruzi), P25779. AID 1476, 2009;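 also: plate controls were enzyme without inhibitor for no effect and buffer without enzyme for full effect; nearly all actives have a fitted effect of over 40% in size; top concentration of the series not given in the record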
# Target sequence (P25779 123-467 limits assumed): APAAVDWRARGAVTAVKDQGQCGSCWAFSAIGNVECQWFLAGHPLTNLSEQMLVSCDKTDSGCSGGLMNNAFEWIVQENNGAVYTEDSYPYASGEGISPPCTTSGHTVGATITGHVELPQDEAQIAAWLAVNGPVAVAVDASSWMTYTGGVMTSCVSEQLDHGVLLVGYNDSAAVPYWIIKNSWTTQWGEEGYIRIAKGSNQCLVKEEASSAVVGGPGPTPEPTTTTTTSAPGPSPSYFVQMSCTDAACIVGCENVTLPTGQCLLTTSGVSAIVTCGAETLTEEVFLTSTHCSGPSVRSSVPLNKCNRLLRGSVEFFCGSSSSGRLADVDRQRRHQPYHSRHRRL
#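 Detergent-free condition (0.00005% Triton X-100) in acetate buffer pH 5.5 with DTT. 1.5 nM enzyme and compound were pre-mixed 15 min, then 2 uM Z-FR-AMC substrate added; reaction progress from fluorescence change between first and third reads (60 s).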
# Cruzain Triton: qHTS Assay for Promiscuous and Specific Inhibitors of Cruzain (with detergent); Potency, µM, inactives show max response, negative = inhibition, actives largely listed as inhibitors; 0.43% of 200,000 active; Cruzipain (Trypanosoma cruzi), P25779; purified cruzain, Z-FR-AMC fluorescence, 0.01% Triton;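 also: plate controls were neutral wells for no effect and buffer without enzyme for full effect; nearly all actives have a fitted effect of over 40% in size; top concentration of the series not given in the record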
#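 Purified cruzain (1.5 nM final) was preincubated with compounds for 15 min at room temperature in 100 mM sodium acetate pH 5.5, 5 mM DTT, 0.01% Triton X-100. Reaction started with 2 uM Z-FR-AMC; AMC fluorescence change over 60 s gave activity.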
# RE007 growth inh: qHTS Assay for Inhibitors of the HIV-1 protein Vpr; S. pombe RE007 Vpr strain, BacTiter-Glo ATP luminescence, 24 h; control for the full effect not named in the record; Potency, µM (highest dose often 92.2 µM), for the others: top-dose activity change, negative = less growth; 0.21% of 360,000 active; active = well fitted falling curve with a large enough effect; inconclusive = small, poorly fitted or top-dose-only effect; inactive = no such curve, though single readings can be large or run the other way;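 also: % is scaled to controls: 0 for no effect and ±100 for the full control effect; nearly all actives have a fitted effect of over 50% in size; the assay follows cell death caused by Vpr and the record does not say whether a fall means rescue or toxicity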
#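 Fission yeast strain RE007, carrying one chromosomally integrated HIV-1 vpr copy, was seeded at OD 0.01 in PMG+AL medium with 23 nL pinned compound. After 24 h at 30 °C and 99% humidity, viability was read by BacTiter-Glo luminescence.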
# NS1 inh: qHTS Assay for Inhibitors of Influenza NS1 Protein Function; 0.4% of 270,000 active; S. cerevisiae slowed by influenza A NS1, growth recovery by OD600; Potency, µM (titrated, usually from 46.1 µM), inactives show at the highest dose activity, positive = more growth; active means well fitted rising curve with a large enough effect; inconclusive means small, poorly fitted or top-dose-only effect; inactive means no such curve, though single readings can be large or run the other way; also: nearly all actives have a fitted effect of over 50% in size
#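 Growth recovery, yeast-based: influenza A NS1 expressed in S. cerevisiae causes slow growth, and suppressors are detected by OD600. The parent strain without NS1 is used as positive control.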
# LASV entry inh: qHTS for Inhibitors of binding or entry into cells for Lassa Virus; Lassa virus pseudotype entry inhibition, cell reporter; control for the full effect not named in the record; 1.2% of 300,000 active; Potency, µM (titrated, usually from 37.9 µM), without a hit: at the top dose activity change, negative = inhibition, hits mostly inhibitors; active means well fitted inhibition curve with a large enough effect; inconclusive means small, poorly fitted or top-dose-only effect, or effect the other way; inactive means flat fitted curve, though single readings scatter; tested in HEK293 cells; also: % is scaled to controls: 0 for no effect and ±100 for the full control effect; nearly all actives have a fitted effect of over 50% in size; luciferase read-out
# 2A StopGo: High Throughput Screening for Foot and Mouth Disease Virus Antivirals | human cells with a luciferase reporter of 2A StopGo recoding; control for the full effect not named in the record | Potency, µM (highest dose often 57.9 µM), for the others: at the top dose signal change, negative = less light | 1.2% of 410,000 active | AID 1159524, 2015; active = well fitted falling curve with a large enough effect; inconclusive = small, poorly fitted or top-dose-only effect; inactive = no such curve, though single readings can be large or run the other way; tested in HEK293T cells; also: % is scaled to controls: 0 for no effect and ±100 for the full control effect; nearly all actives have a fitted effect of over 45% in size; luciferase light after 4 h
# SARS PLpro yeast: qHTS of Yeast-based Assay for SARS-CoV PLP; S. cerevisiae expressing SARS-CoV PLpro, growth rescue; control for the full effect not named in the record; 0.19% of 330,000 active; AID 485353, 2010; Potency, µM (doses to about 32.9 µM), inactives show at the top dose activity, positive = growth rescue; active means well fitted rising curve with a large enough effect; inconclusive means small, poorly fitted or top-dose-only effect; inactive means no such curve, though single readings can be large or run the other way; also: 0% is about no effect; nearly all actives have a fitted effect of over 55% in size; growth read by luminescence after 48 h
# The depositor's hits bear a star; ? = inconclusive; · = not tested or not shown; & = joins results of further samples; [ ] = dose if it differs, or a comment. Unless noted, calls follow the shape of the dose curve; as a rule, active = well fitted curve in the direction sought with a large enough effect; inconclusive = small, poorly fitted or top-dose-only effect, or another doubt; inactive = no such curve, though single readings can be large; an effect the other way counts as inactive or inconclusive. Potency is read from the fitted curve at half-maximal effect. The order is random (roughly 4.7% active in at least one column).
SMILES,Marburg entry inh,Cruzain inh noDet,Cruzain Triton,RE007 growth inh,NS1 inh,LASV entry inh,2A StopGo,SARS PLpro yeast
Cc1c(Cl)cccc1NC(=O)CSc1ncc(S(=O)(=O)c2ccc(C(C)C)cc2)c(=O)[nH]1,15%[46.1 µM],?,28µM*,·,·,·,-10%,·
CC(O)CN(Cc1ccc(Cl)cc1)CC(C)O (stereo not given),-5%,-10%,4.8%,7%,0%,1%,·,-12%
O=C1N(Cc2ccc3c(c2)OCO3)c2ccccc2C1(O)c1c[nH]c2ccccc12 (stereo not given),-2%,16µM*,2.6%,-3%,17%,-4%,-15%,0%
O=C(CN(C(=O)c1csnn1)c1ccc(F)c(Cl)c1)NCc1ccc(F)cc1,6%[46.1 µM],·,·,-24%,-2%,-3%,4%,0%
COc1ccc(NC(=O)c2c(C)oc3ccc(O)c(CN4CCN(C)CC4)c23)cc1Cl,?,-10%,-3.6%,·,·,?,-29%,·
Cc1cccc(C(=O)NNC(=O)c2ccc(NC(=O)C(C)(C)C)cc2)c1,·,·,·,1%,-23%,·,8%,2%
Cc1ccc(Nc2c3c(nc4nc(-c5cccs5)nn24)CCCC3)cc1F,·,-13%,-1.5%,·,·,?,?,·
Cc1sc2ncnc(OCC(=O)NC(C)C(C)C)c2c1C (stereo not given),-4%[46.1 µM],·,·,3%,·,-6%[46.1 µM],-3%,3%
O=C(NCc1ccc2c(c1)OCO2)c1ccc(CS(=O)(=O)c2ccc(Br)cc2)o1,·,12%,2.0%,2%,-15%,·,?,3%
O=C(N/N=C/c1ccccc1O)C1(O)c2ccccc2-c2ccccc21,-25%,-1%,-7.2%,9%,0%,-22%,-24%,8%
COc1ccc(NC(C)=O)cc1S(=O)(=O)Nc1ccc(OCc2ccccc2)cc1,?,·,·,-12%,0%,?,29%,0%
CN(c1ccccc1)S(=O)(=O)c1ccc(C(=O)OCC(=O)N2CCOCC2)cc1,25%&25%,26%,6.7%,-7%,-7%,0%,-6%,-6%
CCOc1ccc(C(C)NC(=O)Nc2ccc(F)cc2F)cc1 (stereo not given),·,·,·,13%,-5%,·,-9%,-7%
CCC1CCCCN1CCCNC(=O)c1ccc2c(c1)N(Cc1ccccc1)C(=O)c1ccccc1S2(=O)=O (stereo not given),?,15%,3.1%,·,·,-22%[46.1 µM],4%,·
Clc1ccccc1OCCCn1ccnc1,·,·,·,2%,6%,·,-12%,-6%
COc1ccc(NC(=O)CSc2nnc(C3CCCCC3)n2N)c(OC)c1,3%[46.1 µM],·,·,6%,12%,10%[46.1 µM],-5%,-2%
COc1ccc(C)cc1NC(=O)C1CCCN(S(=O)(=O)c2cccnc2)C1 (stereo not given),·,·,·,12%,7%,·,-17%,0%
O=S(=O)(NC1CCCCCCC1)c1ccc(F)cc1,-18%[46.1 µM],·,·,-2%,·,0%,19%,·
Cc1ccc(NC(=O)c2sc3ccccc3c2Cl)nc1,?,-11%,-0.4%,6%,-12%,5.8µM*,·,1%
CC1C(=O)N2CCCc3cc(S(=O)(=O)N4CCN(c5ccc(F)cc5)CC4)cc1c32 (stereo not given),-29%[46.1 µM],·,·,-9%,7%,-25%[46.1 µM],-9%,5%
CCc1ccccc1NC(=O)C1CCN(C(=O)N2CCOc3ccccc32)CC1,·,·,·,2%,-20%,·,?,-8%
CCCS(=O)(=O)N1CCCC(C(=O)NC(C)c2ccc3c(c2)OCCO3)C1 (stereo not given),5%,1%,-2.1%,18%,-5%,1%,?,3%
CCOC(=O)c1ccc(NC(=O)Cn2c(=O)cc(C(F)(F)F)c3c(C)nn(C)c32)cc1,·,2%,-1.2%,·,·,-13%[46.1 µM],10%,·
CC(Oc1ccccc1)C(=O)NNC(=O)c1cccs1 (stereo not given),8%[46.1 µM],·,·,10%,0%,1%[46.1 µM],7%,0%
O=C(CSc1nnc(-c2ccc3c(c2)OCO3)o1)Nc1ncc(Cl)cc1Cl,-8%,-1%,-5.3%,1%,20%,5%,5%,-6%

# Next results.
SMILES,Marburg entry inh,Cruzain inh noDet,Cruzain Triton,RE007 growth inh,NS1 inh,LASV entry inh,2A StopGo,SARS PLpro yeast
CC(CNC(=O)CCn1c(=O)c2cccn2c2ccc(F)cc21)c1ccccc1 (stereo not given),·,30%,-7.3%,4%,7%,0%[46.1 µM],-17%&-5%,7%
O=C(COC(=O)CCCOc1ccc(Cl)cc1Cl)NCc1ccc(F)cc1,-4%,14%,-10%,-4%,-45%,-28%,-21%,-34%
COc1ccc(S(=O)(=O)NC(C)(C)CO)cc1-c1nnc2c3ccccc3c(C)nn12,?,1%,-3.1%,·,·,-1%[46.1 µM],13%,·
COC(=O)c1cc2oc3ccccc3c2n1Cc1nc(-c2cccc(Cl)c2)oc1C,-2%[46.1 µM],?,-0.2%,·,·,·,-17%,·
O=S(=O)(Nc1ccc(Cl)c(Cl)c1)N1CCOCC1,·,·,·,8%,-9%,·,27%,-1%
NC(=O)c1ccsc1NC(=O)COC(=O)CSc1ccc(Cl)cc1,6%[46.1 µM],·,·,5%,-4%,-14%,-5%,-6%
O=C(N/N=C/c1ccccc1C(=O)O)C(=O)N1CCCCC1,?,·,·,6%,0%,2%[46.1 µM],15%,0%
COc1cccc(NC(=O)C2CCN(c3nnc(C)c4c(C)n(-c5ccccc5)nc34)CC2)c1,·,3%,-2.9%,·,·,1%[46.1 µM],?,·
Cc1ccc(SCc2nn(C)c(Cl)c2C=O)cc1,3%[46.1 µM],·,·,15%,·,0%,55%[activator],-7%
Cc1ccc(NS(=O)(=O)c2cc3c(cc2C)NC(=O)CO3)cc1,·,·,·,-5%,20%,·,19%,-8%
CC(O)c1ccc2c(c1)OCCOCCN(C)CCOCCO2 (stereo not given),-1%[46.1 µM],4%,0.0%,0%,1%,3%,-11%,1%
CCCCOc1ccc(S(=O)(=O)N2CCN(c3ccccc3OCC)CC2)cc1,·,11%,5.4%,·,·,1%[46.1 µM],-17%,·
COc1ccc(CN(CC(=O)NCc2ccc(F)cc2)C(=O)c2ccco2)cc1,-11%[46.1 µM],·,·,3%,0%,?,4%,-1%
O=C(CSc1nc(-c2ccccc2Cl)ns1)Nc1ccc2c(c1)OCO2,?,-8%,-5.8%,2%,-2%,6%,-14%,-22%
CCOc1ccccc1Nc1ncccc1C(=O)O,?,7%,0.2%,-1%,-13%,9%,-18%,9%
Cc1ccc(-c2nnc(SCc3ccccc3C#N)o2)cc1,?,-14%,-2.2%,·,·,29%[46.1 µM],-25%,·
CCOC(=O)n1n[n+]([O-])c2ccccc21,32%,-4%,-2.0%,·,-2%,-10%,-16%,-3%
NC(=O)c1cc(-c2ccccc2)nc2ccc(Br)cc12,·,·,·,-1%,4%,·,-10%,1%
CCc1ccc(Nc2cc(C(=O)NCCCN(C)c3ccccc3)c3ccccc3n2)cc1,·,1%,0.2%,·,·,24%[46.1 µM],4%,·
CC(=O)Nc1ccc(NC(=O)CCc2c(C)nc3c(c(C)nn3-c3ccc(C)cc3)c2C)cc1,-30%[46.1 µM],?,2.2%,·,·,-3%[46.1 µM],-13%,·
O=C(CSc1cccc[n+]1[O-])Nc1ccccc1Oc1ccccc1,?,·,·,?,·,·,?,3%
Cc1cccc(C)c1NC(=S)N(Cc1ccccc1)Cc1cccs1,-18%[46.1 µM],·,·,-8%,·,-9%,-7%,-1%
CCc1ccc(CN(C)C(=O)c2cc(COc3c(F)cccc3F)on2)cc1,-13%[46.1 µM],·,·,5%,5%,-23%,46%[activator],-2%
Cc1ccc(CNC(=O)Cn2c(SCC(=O)Nc3ccc(F)cc3)nc3ccccc32)cc1,·,11%,-1.8%,·,·,?,-13%,·
COc1ccc2nc3sc(C(=O)N4CCN(C)CC4)cc3cc2c1,?,-10%,1.0%,-19%,3%,13%,38%[activator],2%

# Remaining list, next part:
SMILES,Marburg entry inh,Cruzain inh noDet,Cruzain Triton,RE007 growth inh,NS1 inh,LASV entry inh,2A StopGo,SARS PLpro yeast
C#CCNC(=O)C1=C[C@H](c2cn(C(C)=O)c3ccccc23)[C@@H](CCCO)[C@H](OCC)O1,·,·,·,-22%,-2%,·,-17%,-1%
CC1CC(C)CN(C(=O)Cn2c(=O)c3cccn3c3cccnc32)C1 (stereo not given),-8%[46.1 µM],·,·,-2%,-2%,5%[46.1 µM],-6%,2%
CC1CCN(S(=O)(=O)c2ccc3c(c2)N(CC(=O)NCc2cccnc2)C(=O)CS3)CC1,6%,8%,-2.1%,-13%,-7%,3%,16%,-7%
O=C(NC(=S)N(CCCCO)C1CCCCC1)c1sc2ccccc2c1Cl,13µM*,3%,-2.5%,?,-43%,?,·,-4%
CC1CN(C(=O)c2ccccc2)c2ccccc2NC1=O (stereo not given),2%,10%,1.6%,·,-1%,-15%,-7%,24%
CC(C)N(C(=O)CN1CCN(S(=O)(=O)c2ccc(Br)s2)CC1)C(C)C,-2%,·,·,-28%,·,-18%,?,1%
Cc1ccccc1OCc1nc2ccccc2n1Cc1ccccc1Cl,-4%[46.1 µM],-5%,-8.0%,·,·,12%[46.1 µM],0%,·
Cc1cccc(NC2=C(Cl)C(=O)OC2NC(=O)c2ccccc2)c1 (stereo not given),-12%,?,-1.0%,-2%,-2%,12%,-6%,5%
O=C(O)/C=C/C(=O)OC1CC2CCC1C2 (stereo not given),5%[46.1 µM],·,·,2%,1%,3%,13%,0%
CSc1ccccc1NC(=O)CN1CC(C)OC(C)C1 (stereo not given),-11%[46.1 µM],·,·,4%,·,-15%[46.1 µM],-13%,4%
Cc1cc2c(=O)n(C)c(SCC(=O)c3cc4ccccc4o3)nc2s1,?,?,-3.7%,0%,-11%,23%,·,0%
